# UUG fidelity – alters start codon recognition fidelity in yeast. S. cerevisiae UUG-firefly luciferase reporter, luminescence/redox ratio. activity score, % at 18.7 µM. 350,000 compounds, 0.13% hits. AID 602363;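 active means replicate mean at a twofold rise or more, about +100% in these data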;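 further: firefly luciferase made from a UUG start codon reports start codon fidelity; reporter light over untreated wells divided by growth signal over untreated wells; some hits fall short of that in this replicate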
# Rce1 inhib – blocks yeast Ras-converting enzyme; Q03530; 290,000 compounds, 0.27% hits; yeast membranes, quenched prenylated peptide cleavage fluorescence; calls only;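 active means fall in fluorescence gain of 50% or more versus controls, with final raw signal at or below 3038400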;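 further: plate controls were neutral control wells for no effect and wells lacking membranes for full effect; tested at 10 µM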
# PABP polyA inh – PABP-poly(A) binding inhibition | P11940 | inhibition, % at 35 µM | 290,000 compounds, 1% hits | PABP-poly(A) RNA binding, fluorescence polarization;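 active means 50% or more with normal probe brightness, or confirmed in later tests; about a fifth of its hits are not listed in these tables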;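 further: calls also rest on retests at 20 µM and on dose response follow-up; controls were probe without protein and protein plus probe with vehicle; some compounds called inactive have numbers as strong as hits; many hits fall short of the cut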
# Target sequence (P11940 whole entry, looked up): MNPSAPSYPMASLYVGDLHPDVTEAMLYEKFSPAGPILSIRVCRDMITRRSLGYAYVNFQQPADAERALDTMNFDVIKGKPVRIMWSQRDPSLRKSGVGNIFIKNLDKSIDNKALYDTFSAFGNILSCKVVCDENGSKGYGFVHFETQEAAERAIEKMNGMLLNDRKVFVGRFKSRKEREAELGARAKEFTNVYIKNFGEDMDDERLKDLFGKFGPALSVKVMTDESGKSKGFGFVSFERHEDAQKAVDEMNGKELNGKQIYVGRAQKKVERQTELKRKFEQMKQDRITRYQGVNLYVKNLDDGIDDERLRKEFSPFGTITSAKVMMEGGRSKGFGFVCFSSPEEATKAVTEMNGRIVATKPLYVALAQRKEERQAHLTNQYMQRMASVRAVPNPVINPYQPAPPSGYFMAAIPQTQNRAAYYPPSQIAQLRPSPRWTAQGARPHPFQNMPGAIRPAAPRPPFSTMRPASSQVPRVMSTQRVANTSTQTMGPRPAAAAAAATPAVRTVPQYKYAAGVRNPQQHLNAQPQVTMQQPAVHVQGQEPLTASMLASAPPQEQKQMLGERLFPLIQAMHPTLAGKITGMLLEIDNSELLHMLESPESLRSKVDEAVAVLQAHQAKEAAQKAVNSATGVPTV
# CSC inhib – blocks cancer stem cells; cancer stem cell-like cells viability, luminescence; inhibition, % at 7.5 µM; 300,000 compounds, 1.1% hits;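 active means mean at 75% or more and at least half the replicates too; tested in HMLE shEcad cells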;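 further: 0% = median of negative and 100% = median of positive control wells; the first replicate is given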
# MT1-MMP act inh – inhibitors of human MT1-MMP activation | 360,000 compounds, 0.061% hits | HT1080 RFP-PRO-GFP cells, GFP/RFP ratio fluorescence, overnight; percent of plate control window, DMSO zero | GFP/RFP ratio change, % at 20 µM | AID 651647 | P50281;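 active means GFP/RFP ratio change of at least 30% with cell ATP level not reduced by more than half and red fluorescence within 50% of control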; further: strong numbers were not always called active
#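 Compound: 20 µM single dose, 1% DMSO / System: HT1080 RFP-PRO-GFP cells / Controls: DMSO and RFP-L50D-GFP cell wells / Read-out basis: GFP/RFP fluorescence ratio / Schedule: overnight compound exposure at 37 °C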
# HIV Env fusion – HIV envelope-mediated fusion inhibition; HeLa-JRFL Env/CEM21 cell fusion, luciferase; inhibition, % at 12.3 µM; 360,000 compounds, 1.1% hits;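 active means mean replicate inhibition score of at least 50 and every replicate individually at or above 50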;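 further: 0% = plate neutral controls and 100% = maraviroc near 300 nM; one replicate is shown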
# eIF4H inh – inhibitors of RNA binding by human eIF4H. AID 2012. 290,000 compounds, 0.94% hits. inhibition, % at 35 µM. eIF4H fluorescence polarization binding assay;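 active means 50% or more with normal probe brightness, or confirmed in later tests; about a fifth of its hits are not listed in these tables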;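 further: calls also rest on retests at 20 µM and on dose response follow-up; 0% = protein and probe with vehicle and 100% = probe without protein; strong numbers were not always called active; many hits fall short of the cut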
# eIF4H inh retest – further read-out of eIF4H inh, marked with its call; inhibition, %; compound at 20 µM; confirmation average;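 mean of two retest wells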
# PABP polyA inh retest – recorded beside PABP polyA inh, whose call it bears; inhibition, %; compound at 20 µM; confirmation repeats;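 mean of two retest wells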
# MT1-MMP act inh RFP – further read-out of MT1-MMP act inh, marked with its call; RFP signal change, %; measured here: RFP expression control read;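 0 = vehicle wells; hits needed this value within 50% of zero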
# Numbers without * were called inactive; i = inactive; nt = not tested or not shown.
SMILES,UUG fidelity,Rce1 inhib,PABP polyA inh,CSC inhib,MT1-MMP act inh,MT1-MMP act inh RFP,HIV Env fusion,eIF4H inh,others
Cc1cc(C)c2sc(N(CCCN(C)C)C(=O)c3ccc(S(=O)(=O)N(C)Cc4ccccc4)cc3)nc2c1,-2,i,nt,-7,3,2,-66,nt,
Cc1cccc(NC(=S)NC2CCSc3ccccc32)c1 (stereo not given),-31,i,-10,7,5,-4,1,1,
CC(C)n1cc(C(=O)N2CCCC(N3CCN(c4ccc(F)cc4)CC3)C2)cn1 (stereo not given),-14,i,-14,-4,3,5,0,1,
CCOC(=O)c1c(S(=O)(=O)NCC(=O)N2CCN(c3ccccc3)CC2)c(C)n(C)c1C,29,i,nt,-16,2,2,4,nt,
O=C(O)c1ccn2c(C(=O)c3ccc(Cl)cc3)c(-c3ccccc3)cc2c1,-10,i,27,4,-3,2,0,11,
COc1cc(S(=O)(=O)NCCCn2ccnc2)ccc1F,-5,i,1,-6,0,1,14,5,
CC1(C(=O)Nc2ccc(Cl)c(Cl)c2)CCN1C(=O)C1CCCCC1 (stereo not given),2,nt,nt,nt,-1,0,24,nt,
Cn1c(=O)[nH]c(=O)c2c1nc(Br)n2CCSc1ncccn1,-6,i,-16,-1,1,2,nt,-6,
CCOC(=O)N1CCN(S(=O)(=O)c2ccc(OCC)cc2)CC1,-11,i,-5,-4,-1,-3,nt,-2,
Cc1ccc(NS(=O)(=O)c2cccc(C(=O)Nc3cccnc3)c2)c(C)c1,-6,nt,nt,-1,3,-20,-38,nt,
NC(=S)N=Nc1c(O)n(C2OC(=O)c3ccccc32)c2ccccc12 (stereo not given),-14,i,-3,5,5,7,nt,21,
COCCN(C)C(=O)CC1C(=O)NCCN1CC(c1ccccc1)c1ccccc1 (stereo not given),nt,i,3,-7,-4,-1,-7,0,
COCC(=O)N1CCCC(C(=O)c2ccc(-c3ccccc3)c(F)c2)C1 (stereo not given),nt,i,2,2,2,-1,8,-1,
COc1ccc(N(C(=O)Nc2ccc(Cl)cc2)C2=NCCC2)cc1,-6,i,3,34,4,-1,nt,-8,
O=C(COC(=O)C1c2ccccc2Oc2ccccc21)NC1CCS(=O)(=O)C1 (stereo not given),0,i,0,-2,2,4,-125,-2,
S=c1nc(-c2ccccc2)[nH]n1-c1ccccc1,-6,i,2,nt,8,4,-12,-1,
Cc1cccc(Nc2nc(N)c([N+](=O)[O-])c(N3CCOCC3)n2)c1,-9,i,0,-3,1,-4,nt,-1,
Cc1cc2cc(CNC(=O)C3CC3)ccc2n1C,-12,i,59,-4,24,21,-45,81,eIF4H inh retest=11;PABP polyA inh retest=30
O=C1[C@@H]2[C@H](C(=O)N1Cc1cccnc1)[C@H]1C=C[C@@H]2C1,-9,i,5,-4,-5,0,nt,-2,
CC(O)Cn1c(=O)c2c(nc(Br)n2Cc2ccccc2)n(C)c1=O (stereo not given),-14,i,8,-6,5,0,nt,10,
CC(C)(OC(=O)c1cccs1)c1cc2ccccc2c(=O)o1,-12,nt,nt,-5,4,0,-5,nt,
CN1C(=O)[C@H](Cc2ccc([N+](=O)[O-])cc2)NC1=S,-15,i,10,12,1,2,2,-5,
COc1cc(S(=O)(=O)NCCN2CCOCC2)ccc1-n1cnnn1,nt,i,-10,0,3,3,-8,7,
CC1=C(C(=O)Nc2ccccn2)C(c2ccc(Cl)cc2)NC(=S)N1 (stereo not given),-5,i,21,-5,-2,1,-14,-4,
O=C(COC(=O)c1ccc(S(=O)(=O)N2CCOCC2)cc1)NCc1cccs1,nt,i,-8,2,2,0,-13,1,

# Remaining list, next part
SMILES,UUG fidelity,Rce1 inhib,PABP polyA inh,CSC inhib,MT1-MMP act inh,MT1-MMP act inh RFP,HIV Env fusion,eIF4H inh,others
O=C(Nc1ccccc1F)c1ccc(-n2cncn2)nc1,nt,i,0,nt,-2,-6,nt,0,
Cc1ccc(S(=O)(=O)N(CC(=O)NCCSc2ccccn2)c2ccc(C)c(C)c2)cc1,2,i,11,4,-6,-6,16,7,
O=C(/C=C/c1ccccc1[N+](=O)[O-])N1CCCCC1,nt,i,34,-9,-5,-2,5,-4,
Cc1cc2oc(C(=O)N(Cc3cccs3)C3CCS(=O)(=O)C3)cc(=O)c2cc1Cl (stereo not given),-12,i,-9,-6,-2,-9,10,5,
CCOC(=O)c1c(C)n(C)c2ccc(O)c(CN(CC)CC)c12,-14,i,13,-4,4,1,-36,-4,
COC(=O)c1cc(OC)c(OC)cc1NC(=O)CSc1ccccc1,12,i,9,-9,5,-3,-18,-1,
CCOC(=O)c1sc(/S(C)=N\S(=O)(=O)c2cccc(Cl)c2)c2c1CCC=C2 (stereo not given),nt,i,16,-23,-4,2,18,10,
COC(=O)[C@H](Cc1ccccc1)NC(=O)Nc1ccc(OC)cc1,nt,i,-7,-2,1,6,31,2,
CSCC[C@H](NC(=O)N1CCn2c1nc1ccccc12)C(=O)NC1CCCCC1,-6,i,nt,-8,1,-1,-1,nt,
C/C(=C\C(=O)c1ccc(Br)cc1)Nc1ccc(Cl)cc1,-26,i,3,6,-1,2,-35,-5,
Cc1ccccc1NC(=O)C(C)c1ccc(-c2ccccc2)c(F)c1 (stereo not given),-11,i,-4,23,2,-14,nt,-11,
CCOC(=O)c1nn(C)c(C)c1Cl,-11,i,-4,-4,-4,2,5,-7,
CC(C)Cn1c(SCC(=O)N2CC(=O)Nc3ccccc32)nc2ccccc21,nt,i,3,-12,-6,2,5,3,
N/C(=N\OC(=O)CSc1ccccc1)c1ccccn1,-17,i,2,13,-1,-2,nt,-4,
Cc1ccc(NC(=O)NCCc2ccc(S(N)(=O)=O)cc2)cc1,-14,i,-12,-8,-1,0,nt,0,
c1ccc2c(c1)ncn2CCN1CCCCC1,-8,nt,-4,-17,-11,-3,-9,-4,
CCOC(=O)CC1C(=O)NCCN1C(=O)c1cccc(OC)c1 (stereo not given),-10,i,0,-3,-1,1,9,-5,
Cc1cc(C)cc(NC(=O)c2cc3c(=O)n4ccccc4nc3s2)c1,-15,i,3,-8,1,-1,-32,-6,
CCCCNC(=O)C1(C)CCC(=O)N1CCc1c[nH]c2ccccc12 (stereo not given),-10,nt,nt,nt,5,4,-6,nt,
Cc1ccc(S(=O)(=O)Nc2ccc(-c3nnc(SCc4ccccc4Cl)o3)cc2)cc1,nt,i,-1,88*,-4,-4,-6,-7,
CC(=O)c1c(C)[nH]c(C(=O)Nc2cccc(S(=O)(=O)N(C)C)c2)c1C,nt,i,-8,7,8,3,-7,2,
Cn1cc(CCC(=O)N2CCCC(C(=O)c3ccc(C(C)(C)C)cc3)C2)cn1 (stereo not given),nt,i,2,57,3,1,0,-5,
O=C(Nc1ccccc1-c1nnn(CC(=O)N2CCOCC2)n1)c1ccccc1F,nt,i,-8,-5,0,1,-15,-6,
COc1ccccc1CNC(=O)CS(=O)(=O)Cc1ccccc1,-4,i,0,-7,-1,4,-10,6,
COc1ccc(S(=O)(=O)N(CCc2ccccc2)CC(=O)O)cc1C,-3,i,16,5,2,7,nt,5,

# Next entries follow:
SMILES,UUG fidelity,Rce1 inhib,PABP polyA inh,CSC inhib,MT1-MMP act inh,MT1-MMP act inh RFP,HIV Env fusion,eIF4H inh,others
O=C(O)CCC(=O)CCC(=O)c1ccc(Cl)cc1,4,i,0,nt,2,0,15,-14,
O=C(NNC(=O)C1CC1)c1cc(=O)[nH]c2ccccc12,-13,nt,nt,0,7,6,6,nt,
COc1cccc(-n2c(C)nnc2SCC(=O)Nc2ccccc2N2CCOCC2)c1,-22,i,-8,1,0,4,-27,-3,
CC(C)Cc1nn2c(=O)cc(COc3ccc(NC(=O)c4ccco4)cc3)nc2s1,-18,i,14,1,4,0,-3,14,
CCCC(=O)NC(C)c1nc(-c2ccc(C)cc2)no1 (stereo not given),4,i,nt,7,5,2,-28,nt,
O=C(O)CCNS(=O)(=O)c1ccc2c(c1)Cc1ccccc1-2,-20,i,-4,5,-1,1,nt,-3,
O=C(NCCc1ccccc1)C1CCC(CNc2nc(=S)[nH]c3ccccc23)CC1 (stereo not given),-24,nt,-12,45,3,-7,9,-9,
COC(=O)c1ccc(C(=O)OC)c(NC(=S)N2CCC(C(N)=O)CC2)c1,-22,i,0,0,-1,1,-3,7,
CC(=O)c1cccc(NS(C)(=O)=O)c1,nt,i,-6,1,-1,5,-7,1,
O=c1ccc(-c2ccc(S(=O)(=O)Nc3ccc(F)cc3)o2)n[nH]1,-22,i,-11,-12,5,5,10,-5,
CC(=O)OCC1(O)CC23CCC4c5ccoc5CCC4(C)C2CCC1C3 (stereo not given),3,nt,nt,nt,1,-4,27,nt,
COc1ccc(-c2csc(C)n2)cc1Br,3,i,-15,8,0,-2,6,-2,
COc1cccc(NC(=O)C2CCCN(S(=O)(=O)c3cccc4cccnc34)C2)c1 (stereo not given),11,i,17,-11,3,-1,19,-5,
CCCCNC(=O)CCCn1c(=O)[nH]c2ccc(Br)cc2c1=O,3,i,-2,-1,-1,-3,15,2,
CC1CCC(NC(=O)c2ccc(NC3=NC4CS(=O)(=O)CC4S3)cc2)CC1 (stereo not given),-19,i,2,-4,1,2,-12,-3,
CCOc1ccccc1-c1nnc(CS(=O)(=O)c2ccccc2)o1,-6,nt,8,7,0,-1,0,-1,
Cc1cccc(C)c1NC(=O)C1c2cccc[n+]2CC(=O)N1Cc1cccs1 (stereo not given),-2,i,-15,-11,-1,4,2,-1,
CCCC(=O)NCCc1ccc(S(N)(=O)=O)cc1,-15,i,15,-15,6,2,-103,-2,
CCOC(=O)N1CCC(NC(=O)C2CCCN(S(=O)(=O)c3ccc4c(c3)oc(=O)n4C)C2)CC1 (stereo not given),-17,i,5,-8,1,-1,nt,-3,
COc1ccc(C2c3c4c(n(C)c3CCN2C)CCN(C)C4c2ccc(OC)cc2)cc1 (stereo not given),-12,nt,4,nt,-12,4,-9,-2,
CC(C)Oc1ccc(S(=O)(=O)N2CCOCC2)cc1NC(=O)CCCSc1ccccc1,-11,nt,nt,nt,-2,-4,10,nt,
Cc1ccc(NC(=O)CCC(=O)NNS(=O)(=O)c2ccccc2)c(C)c1,-8,i,-1,0,0,4,nt,-6,
CC(C)(C)OC(=O)N1CCC(Cc2cc(-c3ccc(Cl)cc3)no2)(C(=O)O)CC1,-16,i,-2,8,0,3,12,-8,
CC1=NN(C(=O)c2ccccc2-n2cccc2)C(O)(C(F)(F)F)C1 (stereo not given),-32,i,13*,nt,-13,-2,5,54*,eIF4H inh retest=92*;PABP polyA inh retest=95*
Nc1ccc2c(c1)nc(Cc1ccccc1)n2CCO,-9,i,8,-5,1,3,7,1,
CN(c1ccccc1)c1nccc(=O)[nH]1,1,i,nt,-3,0,2,-15,nt,
O=C(CN(C(=O)c1cc2c(s1)CCC2)C1CCCC1)NCc1cccs1,-10,i,4,-1,-2,-1,21,8,

# In the list so far, these contain a thiophene ring, fused or not.
SMILES,UUG fidelity,Rce1 inhib,PABP polyA inh,CSC inhib,MT1-MMP act inh,MT1-MMP act inh RFP,HIV Env fusion,eIF4H inh,others
CC(C)(OC(=O)c1cccs1)c1cc2ccccc2c(=O)o1,-12,nt,nt,-5,4,0,-5,nt,
O=C(COC(=O)c1ccc(S(=O)(=O)N2CCOCC2)cc1)NCc1cccs1,nt,i,-8,2,2,0,-13,1,
Cc1cc2oc(C(=O)N(Cc3cccs3)C3CCS(=O)(=O)C3)cc(=O)c2cc1Cl (stereo not given),-12,i,-9,-6,-2,-9,10,5,
CCOC(=O)c1sc(/S(C)=N\S(=O)(=O)c2cccc(Cl)c2)c2c1CCC=C2 (stereo not given),nt,i,16,-23,-4,2,18,10,
Cc1cc(C)cc(NC(=O)c2cc3c(=O)n4ccccc4nc3s2)c1,-15,i,3,-8,1,-1,-32,-6,
Cc1cccc(C)c1NC(=O)C1c2cccc[n+]2CC(=O)N1Cc1cccs1 (stereo not given),-2,i,-15,-11,-1,4,2,-1,
O=C(CN(C(=O)c1cc2c(s1)CCC2)C1CCCC1)NCc1cccs1,-10,i,4,-1,-2,-1,21,8,

# Compound activity deposited in PubChem BioAssay by several laboratories.
